Assay outcomes from PubChem BioAssay.
HNF4A DNA FP = change in binding of human HNF4 alpha to DNA; P41235; HNF4a-FITC DNA binding, fluorescence polarization, 1 h; activity change, % at 10 µM; hit rate 0.3% among 360,000; AID 1224865; in the data active = activity change above about 30%, passing the limit was not always enough;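 also: controls were the assay level and a saturating level of protein; the project sought stronger binding though the title names inhibitors; some compounds called inactive have numbers as strong as hits; positive values seem to mean higher polarization but the record does not say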
FGF22 binding = FGF22 (human) thermal shift binding; calls only at 9.99 µM; Q9HCT0; hit rate 1.5% among 340,000; recombinant FGF22 thermal shift, SYPRO orange fluorescence; percent of sucrose octasulfate shift, DMSO zero;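 active = melting point raised past a set limit in the mean and every replicate; three in four hits are not shown here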
Target sequence (Q9HCT0 whole entry, looked up): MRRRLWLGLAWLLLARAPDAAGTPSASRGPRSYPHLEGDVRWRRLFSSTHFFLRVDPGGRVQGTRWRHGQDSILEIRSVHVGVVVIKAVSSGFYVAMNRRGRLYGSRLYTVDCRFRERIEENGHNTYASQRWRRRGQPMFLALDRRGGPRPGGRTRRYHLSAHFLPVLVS
UCH37 inh = human UCH37 deubiquitinating enzyme inhibition | purified proteasome/UCH37, Ub-AMC cleavage fluorescence | inhibition, % (concentration not given with the values) | hit rate 0.33% among 330,000 | AID 588478;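 active = mean of two replicates above 20%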;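 also: 0% = compound-free wells with enzyme and 100% = wells lacking proteasome; stock transfer was 100 nL into about 20 µL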
Target sequence (Q9Y5K5 whole entry, looked up): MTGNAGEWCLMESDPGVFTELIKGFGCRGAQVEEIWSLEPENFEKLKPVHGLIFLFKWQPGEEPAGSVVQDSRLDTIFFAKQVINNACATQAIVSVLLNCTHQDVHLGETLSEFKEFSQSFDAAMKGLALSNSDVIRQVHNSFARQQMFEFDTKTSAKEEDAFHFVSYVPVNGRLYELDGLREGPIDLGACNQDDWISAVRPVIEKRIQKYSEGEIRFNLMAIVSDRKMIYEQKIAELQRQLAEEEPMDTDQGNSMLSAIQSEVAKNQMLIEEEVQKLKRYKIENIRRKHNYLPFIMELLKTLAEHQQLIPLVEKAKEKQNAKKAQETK
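Material: Human UCH37 enzyme supplied as purified proteasome complex | Schedule: 30 min preincubation with enzyme, 25 min cleavage at room temperature | Detection: AMC fluorescence 355/460 nm | Measure: % inhibition of Ub-AMC cleavage fluorescence | Controls: Wells without proteasome as full block, compound-free enzyme plus substrate as uninhibited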
B2AR ag = human beta-2 adrenergic receptor agonism by FAP | Am2.2-beta2AR cells, FAP receptor internalization, flow cytometry; reference of the scale not given here | hit rate 0.43% among 340,000 | P07550 | response, % (concentration not given with the values);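 active = response above a set limit, near 3 SD of response in nonfluorescent compounds, cut at about 42% in these data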;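 also: stock transfer was 100 nL into about 11 µL; a reference agonist was the positive control; negative values mostly stem from fluorescent compounds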
Target sequence (P07550 whole entry, looked up): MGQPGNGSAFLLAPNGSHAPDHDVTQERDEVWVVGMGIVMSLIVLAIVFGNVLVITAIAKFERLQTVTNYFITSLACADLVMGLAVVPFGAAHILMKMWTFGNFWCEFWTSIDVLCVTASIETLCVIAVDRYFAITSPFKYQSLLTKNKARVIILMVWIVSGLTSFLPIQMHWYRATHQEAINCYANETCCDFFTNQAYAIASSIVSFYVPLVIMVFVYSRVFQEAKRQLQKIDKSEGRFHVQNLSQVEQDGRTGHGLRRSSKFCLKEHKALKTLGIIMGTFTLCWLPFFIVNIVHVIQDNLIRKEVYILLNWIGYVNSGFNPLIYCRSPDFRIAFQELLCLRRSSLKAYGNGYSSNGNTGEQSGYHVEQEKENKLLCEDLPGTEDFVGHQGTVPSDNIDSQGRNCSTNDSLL
rRNA inh HTS = selective bacterial rRNA inhibition in E. coli; E. coli WT GFP vs humanized-ribosome RFP mutants, fluorescence, 24 h; hits give low values; DMSO median 0, no signal -100; GFP signal change (wild-type ribosome), % (no concentration beside the values); hit rate 1.6% among 350,000;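 active = significant combined selectivity score with lowered wild-type GFP, culture density cut under 30%, mutant RFP and density less affected; inactive = any of these conditions unmet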; also: one replicate is shown; some compounds called inactive have numbers as strong as hits
ALR H2O2 inh = blocks human ALR sulfhydryl oxidase activity. hit rate 3.8% among 290,000. P55789. purified ALR, DTT oxidation, H2O2 HRP-luminol luminescence. inhibition, % (no concentration beside the values);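 active = mean and each replicate at 75% or more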;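 also: stock transfer was 7.5 nL into about 7.5 µL; 0% = neutral wells and 100% = wells with inactivated enzyme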
Ecoli growth = inhibitors of Escherichia coli growth. hit rate 0.21% among 330,000. OD600, 23 h; hits give low values. AID 1053175. OD600 absorbance (no concentration beside the values);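 active = OD600 absorbance below the run mean of sample wells minus 3.6 SD, in any replicate, cut at about 0.56 in these data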;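 also: stock transfer was 300 nL into about 60 µL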
rRNA inh HTS OD600 = further read-out of rRNA inh HTS, marked with its call; OD600 change, %; measured here: OD600 growth;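 optical density of the mix in the first replicate; 0 = DMSO median and -100 = no signal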
rRNA inh HTS RFP = second read-out of rRNA inh HTS, no call of its own (marks repeat the call); RFP signal change, %; measured here: RFP humanized mutant strains;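 first replicate; 0 = DMSO median and -100 = no signal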
Starred values were filed as active, the others as inactive; i = inactive; · = no result given; & = joins results of further samples. Some of the compounds tested (hit frequency here may not be typical).

structure | FGF22 binding | ALR H2O2 inh | UCH37 inh | rRNA inh HTS | Ecoli growth | rRNA inh HTS OD600 | rRNA inh HTS RFP | HNF4A DNA FP | B2AR ag
COc1cccc(/C=C/C(=O)OCC(=O)c2ccc3c(c2)NC(=O)CO3)c1OC | i | -9.0 | -38.2 | -20.1* | 0.723 | -11.2* | -0.3* | 2.2 | 2.5
CC(C)(C)NC(=O)CSC(=Nc1cccc(F)c1)NC#N | · | 27.2 | 1.9 | · | 0.698 | · | · | 23.3 | -8.2
Cc1ccc(C)c(S(=O)(=O)N2CCCCC2CCNC(=O)C(=O)NCc2ccccc2)c1 (stereo not drawn) | i | · | 0.0 | 9.7 | 0.701 | 9.3 | -0.6 | 3.2 | -3.2
COc1ccc(OC)c(Cc2nnc(CCC(=O)NC3CCCCC3)o2)c1 | i | -7.5 | 0.0 | 8.9 | 0.72 | 2.6 | -0.9 | 0.0 | -5.8
O=c1[nH]c2ccccc2nc1/C=C/c1ccc(O)cc1 | i | · | -14.2 | -42.3 | · | -65.7 | -19.6 | 36.4* | -1.2
O=S(=O)(NNc1ccc(F)cc1F)c1cccc(Cl)c1 | i | 98.3* | 2.4 | -4.0 | 0.604 | -4.5 | 0.0 | -0.9 | -0.8
COc1cccc(C(c2cccc(OC)c2)c2ccccc2C(=O)O)c1 | i | · | 0.7 | -6.7 | 0.672 | 0.0 | 0.8 | -2.5 | 3.8
COc1ccc(CC(N)c2csc(NC(=O)c3ccccc3OC)n2)cc1 (stereo not drawn) | i | · | · | 1.7 | · | 2.6 | 17.4 | 3.7 | ·
N#Cc1c(N2CCN(C(=O)c3ccccc3)CC2)nc(-c2ccccc2)c2c1CCCC2 | · | -3.7 | -146.7 | · | 0.806 | · | · | -2.2 | 6.7
CC1(C)CC(NS(=O)(=O)c2ccc(S(N)(=O)=O)cc2)CC(C)(C)N1 | i | -41.1 | · | 10.2 | · | 18.2 | -0.8 | -6.9 | -3.3
CN(C(=O)c1cccc(NC(=O)Cc2ccc(NC(=O)C3CCCN(C(=O)C4CCC4)C3)cc2)c1)C1CCCCC1 (stereo not drawn) | i | · | 4.1 | 1.1 | 0.693 | -12.4 | 4.8 | -3.0 | 6.7
CN(C)S(=O)(=O)c1ccc(NC=O)cc1 | i | -1.5 | 2.3 | 13.3 | 0.628 | -0.2 | -2.1 | 0.0 | 1.2
COc1ccccc1NC(=O)CSc1nnc(-c2ccncc2)o1 | · | -15.1 | 1.9 | · | 0.724 | · | · | 1.3 | 15.4
O=c1cnc2ccccc2n1CC1CCCCC1 | i | -5.4 | -33.1 | -7.9 | 0.702 | -8.7 | -1.1 | 2.4 | -7.8
Cc1ccc(NC(=O)CN(C)C(=O)CSc2nc3ccccc3o2)cc1 | · | -5.6 | 4.5 | · | 0.692 | · | · | 3.0 | 2.7
CCC1(C)Cc2ccccc2-c2nc(NCCO)[nH]c(=O)c21 (stereo not drawn) | · | -2.4 | -197.2 | -40.3 | 0.67 | -65.8 | -11.6 | -3.0 | 1.6
CC1(C)CC(=O)c2cc3c(nc2C1)CC(C)(C)CC3=O | · | -4.4 | 3.2 | · | 0.667 | · | · | 5.4 | -5.8
COCCN(Cc1ccccc1)C(=O)c1cccc(S(=O)(=O)N2CCCc3ccccc32)c1 | i | -1.5 | 1.3 | -22.4 | 0.68 | -33.1 | -1.4 | 2.2 | 1.5
CS(=O)(=O)c1sc2nc(-c3ccccc3)cc(-c3ccccc3)c2c1N | · | -1.8 | -124.8 | · | 0.775 | · | · | 3.5 | -7.4
Cc1ccccc1N(C(=O)c1snc(C(N)=O)c1N)C(C(=O)NC1CCCC1)c1ccco1 (stereo not drawn) | i | · | -206.7 | -11.2 | 0.663 | -16.6 | 5.0 | -3.4 | 2.8
Cc1cc(C)n2c(Br)c(CSc3nc4ccccc4o3)nc2n1 | · | 3.6 | -36.9 | · | 0.691 | · | · | -5.7 | -7.9
CC(OC(=O)c1ccc2c(c1)C(=O)N(Cc1ccncc1)C2=O)C(=O)Nc1cccc(Cl)c1Cl (stereo not drawn) | · | · | -1.8 | · | 0.702 | · | · | 3.6 | 3.6
Cc1ccc(S(=O)(=O)NCC2CCCO2)cc1[N+](=O)[O-] (stereo not drawn) | · | -4.3 | -1.1 | · | 0.682 | · | · | -2.4 | -2.0
Cn1nc(NC(=O)CC(C)(C)CC(=O)O)c2ccccc21 | i | 0.5 | 5.3 | 13.9 | 0.672 | 10.7 | 2.6 | 1.4 | -9.9
COc1cccc(C(O)c2nc(-c3cncnc3)cs2)c1 (stereo not drawn) | i | · | · | 1.4 | · | 3.1 | 0.1 | -4.4 | ·
O=C(COC(=O)[C@H](Cc1ccccc1)NC(=O)c1cccs1)Nc1cc(F)ccc1F | i | 7.1 | 3.4 | -17.1 | 0.617 | -22.6 | -10.3 | 6.7 | 1.8
O=C(NCc1ccco1)c1ccccc1-c1ccccc1 | · | 67.9 | 4.9 | · | 0.725 | · | · | -0.3 | 6.7
CCCOC(=O)c1ccc(Oc2cn[nH]c2-c2ccc(OC)cc2O)cc1 | · | -2.0 | -0.4 | · | 0.719 | · | · | -2.5 | 1.6
Cc1ccccc1CN1CCN(S(=O)(=O)c2cccs2)CC1 | i | -41.2 | 3.0 | -15.1 | 0.664 | -35.3 | -10.6 | 3.1 | -1.1
O=C1NC(Cc2ccccc2)c2nc3cc(Cl)ccc3c(=O)n2-c2cc(Cl)ccc21 (stereo not drawn) | i | 7.0 | · | 1.6 | · | 2.3 | -5.6 | · | ·
Cc1nn(Cc2ccc(Cl)cc2)c(C)c1NC(=O)c1noc2c1CCCCC2 | i | -1.2 | 4.1 | · | 0.689 | · | · | 0.2 | -28.4
O=C(C(=NNc1ccccc1)c1ccccc1)c1ccccc1 | i | · | 8.2 | -8.6 | 0.695 | -25.8 | -8.8 | -4.4 | 2.0
Cc1ccc(N2C(=O)c3ccccc3C(C)(C)C2=O)cc1 | i | 2.6 | 2.8 | 11.7 | 0.619 | 6.6 | 0.8 | -1.4 | 8.6
O=C(Nc1nc2ccccc2[nH]1)C12CC3CC(CC(C3)C1)C2 | · | 1.0 | -0.1 | · | 0.691 | · | · | 1.0 | -3.7
COCCCNc1nc(SCc2ccccc2)nc2sc3c(c12)CCC3 | · | -7.7 | 0.3 | · | 0.734 | · | · | 3.9 | 1.8
COc1cc2c(cc1OC)C(C)N(C(=O)CCN1C(=O)C3C4C=CC(C4)C3C1=O)CC2 (stereo not drawn) | · | -25.8 | 3.7 | · | 0.743 | · | · | -4.8 | 7.7
CC(C)Sc1nc2ccc(Br)cc2[nH]1 | i | -6.1 | 0.0 | 7.9 | 0.635 | 3.3 | -4.6 | 0.8 | 7.2
CCOc1ccc(N/C=C/C(=O)c2ccccc2)c([N+](=O)[O-])c1 | i | -27.3 | 3.8 | 0.2 | 0.717 | 12.8 | -1.3 | 0.4 | -4.0
CCn1cc(Br)c(C(=O)Nc2cccc(Cl)c2)n1 | · | 10.9 | 2.1 | -36.0 | 0.635 | -41.1 | -12.6 | 3.4 | -11.8
O=S(=O)(c1ccccc1)n1ccc2ccccc21 | · | -8.8 | 1.1 | · | 0.718 | · | · | 2.9 | 1.8
N#Cc1ccc(OCC(=O)N2CCN(C(=O)c3ccco3)CC2)cc1 | i | · | 11.5 | · | 0.688 | · | · | -0.6 | 14.4
CN(C)c1ncnc2c1NC1=C(S2)C(=NCCCC(=O)O)CC(C)(C)C1 | · | 71.6 | 3.1 | · | 0.7 | · | · | -3.4 | -6.1
Nc1nnc(SCc2ccccc2Cl)s1 | · | -6.0 | -1.5 | · | 0.712 | · | · | 1.1 | -8.4
N=c1ccn(Cc2c(Cl)cccc2Cl)cc1 | i | -1.8 | 1.7 | 3.1 | 0.688 | 7.3 | -3.6 | -1.8 | -0.7
CCOC(=O)c1ccc(Nc2nc(C)cc(C)n2)cc1 | i | -2.3 | -33.7 | 15.1 | 0.698 | 22.9 | 2.3 | 3.0 | 9.1
COC(=O)N/N=C\c1cc2c(cc1Br)OCO2 | i | 0.9 | · | 7.4 | · | 20.3 | -2.8 | 3.8 | -22.6
COc1ccc(NC(=O)[C@@H]2CC=C[C@@H]3CCN(C4CCCCC4)C(=O)[C@@H]32)cc1 | · | 0.7 | 0.2 | · | · | · | · | -0.7 | 4.2
COC(=O)c1c(N)c(C#N)c(C)n1-c1ccccc1 | · | 1.9 | 0.1 | · | 0.696 | · | · | -1.3 | -1.6

Grouped by structure: the entries above with a nitro group on carbon
structure | FGF22 binding | ALR H2O2 inh | UCH37 inh | rRNA inh HTS | Ecoli growth | rRNA inh HTS OD600 | rRNA inh HTS RFP | HNF4A DNA FP | B2AR ag
Cc1ccc(S(=O)(=O)NCC2CCCO2)cc1[N+](=O)[O-] (stereo not drawn) | · | -4.3 | -1.1 | · | 0.682 | · | · | -2.4 | -2.0
CCOc1ccc(N/C=C/C(=O)c2ccccc2)c([N+](=O)[O-])c1 | i | -27.3 | 3.8 | 0.2 | 0.717 | 12.8 | -1.3 | 0.4 | -4.0

Following part.
structure | FGF22 binding | ALR H2O2 inh | UCH37 inh | rRNA inh HTS | Ecoli growth | rRNA inh HTS OD600 | rRNA inh HTS RFP | HNF4A DNA FP | B2AR ag
CC(C(=O)O)c1ccc(N2Cc3ccccc3C2=O)cc1 (stereo not drawn) | i | · | 6.0 | · | · | · | · | 1.3 | -6.6
CCC/C(C)=N\Nc1nc2c(c(=O)n(C)c(=O)n2C)n1C | i | 3.8 | · | -1.2 | · | 10.2 | -2.1 | -3.4 | -13.5
CCN1CCN(CCCNC(=O)CNC(=O)c2nn(-c3ccc(OC)cc3OC)c(=O)c3ccccc23)CC1 | i | -12.5 | 2.1 | 6.2 | 0.703 | 0.5 | 1.5 | 1.4 | -5.1
CCCCNC(=O)C(NC(=O)c1ccc2c(c1)OCO2)C(=O)c1ccccc1 (stereo not drawn) | i | · | · | 10.5 | · | 11.5 | -0.8 | 9.2 | ·
COc1ccccc1OCCOCCN1CCCC1 | i | -1.9 | -1.5 | 6.1 | 0.71 | -4.1 | -8.5 | -2.1 | 3.3
COc1ccc(C(O)P(=O)(O)CCc2ccccc2)cc1 (stereo not drawn) | · | -2.5 | -4.4 | · | 0.736 | · | · | 0.8 | -0.8
O=C(C[C@H]1CC[C@H](NC(=O)C2CCOCC2)[C@@H](CO)O1)NCc1ccncc1 | i | · | · | 1.0&8.5 | · | 7.8&3.6 | -5.9&-0.9 | -1.2 | ·
Cc1cccc(NC2=NCC(=O)N2CCc2ccccc2)c1 | · | -12.0 | 4.2 | · | 0.712 | · | · | 0.8 | 13.5
Nc1ccccc1SCc1ccccc1Cl | i | -0.1 | -0.5 | -17.5 | 0.673 | -10.5 | -0.1 | 0.0 | 1.3
CCC(C)N(C(=O)COC(=O)c1[nH]c(C)c(C(C)=O)c1C)C1CCS(=O)(=O)C1 (stereo not drawn) | · | 0.1 | 1.8 | · | 0.748 | · | · | -1.4 | 4.4
Cc1ccc2c(c1)N(C(=O)CCC(=O)NCCCN1CC(C)CC(C)C1)CCO2 (stereo not drawn) | i | -2.2 | -2.8 | 7.9 | 0.67 | -6.8 | -3.7 | 0.3 | 20.1
CC(C)C(NC(=O)c1cccs1)C(=O)NC1CCCCC1 (stereo not drawn) | i | 2.9 | -0.6 | 7.7 | 0.725 | 5.8 | -3.0 | 0.2 | 10.8
